NPYLR7 ag: mosquito NPYLR7 agonism. HEK293T NPYLR7/Galpha15, GCaMP6s calcium fluorescence. activation, % at 10 µM. 270,000 tested, 0.15% active; in the data active = activation above about 40%;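 note: 0% = vehicle and 100% = reference agonist at the receptor; some compounds past the cut are filed as inactive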
NPYLR7 ag max-min: second read-out of NPYLR7 ag, no call of its own (marks repeat the call); activation, %; measured here: Max-Min RFU normalised activation; some inactives read as strong as hits;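 span of the calcium signal over five minutes; 0% = vehicle and 100% = native peptide agonist; compound fluorescence can raise it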
* = called active by the depositor; & = joins results of further samples. Some of the compounds tested, so the mix of outcomes need not match the whole.

Below each compound – NPYLR7 ag | NPYLR7 ag max-min
- CCc1nc2ccc(C(=O)NCCc3c[nH]c4ccccc34)cn2c1N(C=O)CCC(C)C
    -3 | -7
- CC(C)c1ccc(CC(=O)N2CCC2(C)C(=O)Nc2ccc3c(c2)OCO3)cc1 (stereo not drawn)
    10 | 8
- Cn1c(=O)c2c(SCC(=O)Nc3cc(C(F)(F)F)ccc3Cl)nc(C3CC3)nc2n(C)c1=O
    -2 | 1
- CN(CCn1cccn1)S(=O)(=O)c1cccc(Cl)c1C#N
    -8 | -14
- O=C(Cc1noc(-c2cscn2)n1)Nc1ccc2c(c1)OCCO2
    2 | 0
- O=C(O)c1ccc(=O)n(Cc2ccccc2Cl)c1
    5 | 5
- Cc1cc(OCC(=O)N2CCCN(C(N)=O)CC2)ccc1Cl
    3 | 1
- CC(C)(C)OC(=O)N1CCC(C(=O)N2CCC(c3ccc(F)cc3)CC2)CC1
    18 | 8
- CCN(CC)C(=O)Oc1ccc2c(ccn2Cc2cccc(Oc3ccccc3)c2)c1-c1ccc(F)c(Cl)c1
    15 | -1
- Cc1cc(CN2CCC(C3(c4cccnc4)NC(=O)NC3=O)CC2)oc1C (stereo not drawn)
    2 | 1
- COCCN(Cc1ccc(OC)c(OC)c1)CC(O)Cc1ccccc1 (stereo not drawn)
    36 | 39
- COCC(=O)Nc1cccc(-c2cccc3ccnn23)c1
    7 | 2
- CCNc1ccnc(N2CCC(N3CCC(O)CC3)CC2)n1
    15 | 11
- CC1COCCN1CC(=O)Nc1cccc(CSc2ccccn2)c1 (stereo not drawn)
    -2 | -16
- O=c1scc(C(F)(F)F)n1Cc1ccc(Br)cc1
    0 | -1
- Cc1ccc(C(=O)N[C@H]2CO[C@H]3[C@@H]2OC[C@H]3O)cc1
    -4 | -12
- Cc1ncc(CN(C)C(=O)Nc2ccc(N(C)C3CCCCC3)c(F)c2)s1
    11 | 7
- CCSc1nc(O)cc(=O)n1CC
    2 | 0
- COc1ccc(-c2ccnc(N)c2)c(C)c1
    -6 | -4
- Cc1ccc(NC(N)=Nc2nc3c(c(=O)[nH]2)CCC3)cc1Cl
    -1 | -2
- CC(C)c1cc(C(=O)N2CCNCC2C(=O)N2CCOCC2)cs1 (stereo not drawn)
    7 | 4
- C[C@@]12C(=O)N(c3ccc(C(=O)Nc4cccc5cccnc45)cc3)C(=O)[C@@H]1[C@@H]1C=C[C@H]2C1
    7 | -5
- Cc1ccc(OCC(=O)N(C)C2CCS(=O)(=O)C2)c(Br)c1 (stereo not drawn)
    7 | 10
- Cc1ccc(Cc2nnc(SCC(=O)Nc3ccc(OC(F)F)cc3)[nH]c2=O)cc1
    -1 | -3
- Cc1cnc(CNC(=O)c2ccc3sc([C@@H]4O[C@H](CO)[C@H](O)[C@H](O)[C@H]4O)nc3c2)cn1
    17 | 11
- CC(CNS(=O)(=O)c1ccc2ccccc2c1)N1CCc2ccccc2C1 (stereo not drawn)
    6 | 4
- COc1ccc(CN(C)C(=O)c2ccc(Cl)c(S(N)(=O)=O)c2)cc1
    7 | 2
- CCOC(=O)N1CCN(C(=O)CC(c2cccc(C)c2)c2cn(CC)c3ccccc23)CC1 (stereo not drawn)
    -1 | 6
- Cc1ccc(-c2cc3c(SCC(=O)Nc4ccc(F)cc4F)nccn3n2)cc1
    4 | -4
- O=c1ccc(-c2cccnc2)nn1CCNS(=O)(=O)c1cccs1
    8 | -2
- NCC1Cc2cc(-c3nc4ccccc4o3)cc(F)c2O1 (stereo not drawn)
    5 | 4
- CC1C(C)S(=O)CCN1C(=O)Nc1ccc(C#N)cc1 (stereo not drawn)
    9 | 5
- CC(=O)C(C)n1c(CN2CC(C)CC(C)C2)nc2c1c(=O)n(C)c(=O)n2C (stereo not drawn)
    12 | 10
- COc1ccc(C=CC(=O)OCc2cc(=O)oc3cc(C)ccc23)cc1
    -4 | -8
- O=C(Cn1cc(C(F)(F)F)ccc1=O)NCc1ccco1
    23 | 22
- CCNC(=O)CNC(=O)Nc1ccc2oc(CC(C)(C)C)nc2c1
    2 | 1
- CN(Cc1cnccn1)C(=O)CC1C(=O)NCCN1Cc1cccc(Oc2ccccc2)c1 (stereo not drawn)
    3 | 1
- C=CCN1C(=O)NC(c2cccc(OCc3ccccc3)c2)C2=C1CN(c1ccc(OC)cc1)C2=O (stereo not drawn)
    3 | 8
- CC1CC(C)CN(S(=O)(=O)NCCNC(=O)Cc2cccc(F)c2)C1 (stereo not drawn)
    3 | 1
- COc1ccc(Cl)cc1C1(CNC(C)C(=O)NC(N)=O)CCOCC1 (stereo not drawn)
    -5 | -6
- C=CCOc1ccc(S(=O)(=O)c2ccc(OCC=C)cc2)cc1
    0 | -1
- CCN(CC)CCNC(=O)C(=Cc1ccco1)NC(=O)c1ccc(C)cc1
    8 | 7
- COc1ccc2sc(N(Cc3cccnc3)C(=O)CCc3ccccc3)nc2c1
    -3 | 3
- COC(=O)c1ccc(CSc2nc3c(cnn3-c3ccc(Cl)cc3)c(=O)[nH]2)o1
    -2 | -5
- Cc1cc(C)n(-c2ccc(C(=O)N3CCCC3C3CCCCC3)cc2)n1 (stereo not drawn)
    -20 | -24
- CC(=O)Cn1cnc2c(nnn2-c2ccc(OC(F)(F)F)cc2)c1=O
    -3 | -7
- COCCNC(=O)c1cc(-c2ccc(OC)cc2)n(-c2cccc(OC)c2)c1C
    25 | 23
- CC(NC1(C)CCS(=O)(=O)C1)C(=O)Nc1ccc(N2CCCCC2)cc1 (stereo not drawn)
    1 | -1
- COc1ccccc1-c1cc(C(=O)N2CCN(C(c3ccccc3)c3ccccc3)CC2)n2nc(-c3ccc(Cl)cc3)cc2n1
    17&5 | 20&5
- Cc1cccc(-c2nc3c(c(=O)[nH]2)CN(C(=O)c2ccc(Cl)cc2)CC3)c1
    7 | 15
- NC(=O)[C@@H]1CCCN1C(=O)c1cc2n(n1)CCCN(Cc1ccccc1)C2
    3 | -1
- Cn1c(=S)[nH]c2[nH]c(=O)cnc2c1=O
    -5 | -8
- CC(C)c1ccc(C2c3c(n(C)c(=O)[nH]c3=O)N=C3COC(=O)C32)cc1 (stereo not drawn)
    -1 | -6
- CCCCCCCC(=O)NN=Cc1ccco1
    2 | 17
- CCCNc1ncc(C2NC(=O)NC(C)=C2C(=O)N(C)C(C)C)cn1 (stereo not drawn)
    52 | 21
- COc1ccc(-c2c(C)[nH]n3c(=O)cc(C)nc23)cc1OC
    6 | 4
- CCOc1ccc(N2C(=O)CSC2c2cccc(NC(=O)c3ccco3)c2)cc1 (stereo not drawn)
    -9 | -3
- COC(=O)c1ccc(Cn2cc(Cl)cn2)o1
    -2 | -6
- Cc1noc(-c2ccc(C(C)(C)C)cc2)c1C(=O)NCc1cc(F)cc(F)c1
    5 | -3
- CCCCOc1ccc(C(=O)N(CC(=O)NCC(=O)Nc2ccc(OC)cc2)CC(C)C)cc1
    6 | 21

Following part:
Below each compound – NPYLR7 ag | NPYLR7 ag max-min
- Cc1ccc(OCc2nc3ccccc3n2C)cc1
    -12 | -17
- CCCn1cnnc1C(C)NC(=O)c1scc2c1OCCO2 (stereo not drawn)
    13 | 11
- CC(C)S(=O)(=O)N1CCC(C(NC(=O)c2cccs2)C(=O)N2CCCC2)CC1 (stereo not drawn)
    8 | 13
- C=CCN(CC=C)C(=O)c1cn(Cc2ccccc2Cl)nn1
    3 | 0
- Cc1ccccc1Cc1nnc(NC(=O)C(C)Cn2cncn2)s1 (stereo not drawn)
    0 | -1
- CC(C)C1CN(S(=O)(=O)c2cn(C)cn2)CCCN1Cc1ccc(F)cc1 (stereo not drawn)
    5 | 1
- Nc1ncnc(Nc2cc(Cl)c(Cl)cc2Cl)c1[N+](=O)[O-]
    7 | 5
- CCC(C)(NCc1cc(=O)n2cccc(C)c2n1)c1nc(C)cs1 (stereo not drawn)
    -3 | -4
- O=C(OCc1ccccc1)c1cc2cc(Cl)cc(Cl)c2oc1=O
    0 | 2
- Oc1cccc(-c2cn(CC(O)COC3CCCCC3)nn2)c1 (stereo not drawn)
    -4 | -7
- CC1(C(=O)NS(=O)(=O)c2ccccc2C(F)(F)F)CCN1C(=O)Cc1cccs1 (stereo not drawn)
    -2 | -8
- COCCN(CC(=O)N(CCc1c[nH]c2ccccc12)Cc1ccc(OC)c(OC)c1)C(=O)c1cccc(OC)c1
    -1 | -11
- COc1cccc(C(NC(=O)C2CCN(C(=O)Nc3ccsc3)CC2)c2ccccn2)c1 (stereo not drawn)
    8 | -3
- Cc1nc(-n2cccc2)sc1C(=O)NC1CCN(C(=O)OC(C)(C)C)CC1
    -2 | -5
- Cc1oc(C)c(-c2ccccc2)c1C(=O)NCc1ccc(F)c(C(F)(F)F)c1
    -18 | -23
- CCN(CC(=O)N(C)C)C(=O)c1cc(Br)c2c(c1)OCCO2
    15 | 12
- COCc1cc(C)nc(N/N=C\c2cc(I)c(OC)c(OC)c2)c1C#N
    -2 | -1
- O=C(O)c1cc(-c2cccc(F)c2)n2nc(-c3ccccc3)cc2n1
    -7 | -4
- O=C(CSc1nc2ccccc2c(=O)[nH]1)N1CCCCC1
    -2 | -4
- COCCN(CC(=O)N(CCc1ccc(OC)c(OC)c1)Cc1ccc(C)o1)C(=O)C1CCCC1
    -3 | -2

Full records, quoted from the list. Values in the order: NPYLR7 ag | NPYLR7 ag max-min
`O=C(O)c1cc(-c2cccc(F)c2)n2nc(-c3ccccc3)cc2n1` in the list: -7 | -4
`COCCN(CC(=O)N(CCc1c[nH]c2ccccc12)Cc1ccc(OC)c(OC)c1)C(=O)c1cccc(OC)c1` in the list: -1 | -11
`Cc1ccc(OCc2nc3ccccc3n2C)cc1` in the list: -12 | -17
`CC(C)C1CN(S(=O)(=O)c2cn(C)cn2)CCCN1Cc1ccc(F)cc1` (stereo not drawn) in the list: 5 | 1
`O=C(CSc1nc2ccccc2c(=O)[nH]1)N1CCCCC1` in the list: -2 | -4

Next compounds follow:
Below each compound – NPYLR7 ag | NPYLR7 ag max-min
- COc1ccccc1C(=O)N1CC(=O)N(C2CCCCC2)CC(O)C1 (stereo not drawn)
    8 | 19
- O=C(Cn1nc(C(=O)Nc2ccccc2)ccc1=O)Nc1ccccc1
    1 | 0
- O=C(NC1CC1)C1CCN(S(=O)(=O)N2CCCC2)CC1
    -1 | -1
- CSc1ccc(OCCN(C)Cc2cnn(C)c2)cc1
    -1 | -4
- Cc1cc(-c2csc(NC3CC3)n2)c(C)n1-c1ncn[nH]1
    8 | 5
- CCOC(=O)C1(Cc2ccccc2)CCCN(C(=O)COc2ccccc2OC)C1 (stereo not drawn)
    1 | 1
- CC1(C(=O)NS(=O)(=O)c2cccc(OC(F)F)c2)CCN1C(=O)CC1CC1 (stereo not drawn)
    0 | -1
- CC(C)CN1CC(C(=O)N(C)Cc2cc(-c3ccncc3)no2)CC1=O (stereo not drawn)
    2 | -2
- CC(=O)c1cnc2sc(C(=O)Nc3cccc(F)c3)c(C)c2c1
    5 | 2
- CCC(C)NCc1ccsc1 (stereo not drawn)
    2 | 3
- O=C(Cn1cnc2ccccc2c1=O)N1CCCC(O)(CO)CC1 (stereo not drawn)
    5 | 3
- CCn1c(SCC(=O)N2N=C(C)CC2(O)C(F)(F)F)nnc1-c1cc(C(F)(F)F)nn1C (stereo not drawn)
    -3 | -7
- COc1ccc(C2=N/C(=C\C(C)=C\c3ccccc3)C(=O)O2)cc1[N+](=O)[O-]
    1 | 8
- C(=NNc1nc2ccccc2[nH]1)c1c(-c2ccccc2)[nH]c2ccccc12
    2 | 0
- CC1ON=C(c2cccc(Cl)c2)NC1=O (stereo not drawn)
    6 | 4
- C=C(C)Cn1c(=O)c2c(nc3n2CC(C)CN3c2ccc(CCCC)cc2)n(C)c1=O (stereo not drawn)
    4 | 1
- COC(=O)C(C)n1c(=O)c2c(nc3n(-c4ccccc4Cl)c(C)cn23)n(C)c1=O (stereo not drawn)
    -2 | 10
- CC(N=C(NC#N)Nc1ccncc1)C(C)(C)C (stereo not drawn)
    5&-2&-1&3 | -4&-7&-5&-13
- Cc1cccc(CC(=O)N2CCC(n3nccc3NC(=O)c3cccc(F)c3)CC2)c1
    4 | 1
- Cc1ccc(-c2c(C)oc(C)c2C(=O)NCCc2ccc(F)cc2)cc1
    -4 | -15

Not a retest: entries from further up.
Below each compound – NPYLR7 ag | NPYLR7 ag max-min
- CC(N=C(NC#N)Nc1ccncc1)C(C)(C)C (stereo not drawn)
    5&-2&-1&3 | -4&-7&-5&-13
- Cc1cccc(CC(=O)N2CCC(n3nccc3NC(=O)c3cccc(F)c3)CC2)c1
    4 | 1
- Cc1ccc(-c2c(C)oc(C)c2C(=O)NCCc2ccc(F)cc2)cc1
    -4 | -15

Other compounds follow:
Below each compound – NPYLR7 ag | NPYLR7 ag max-min
- CC(C)(C)c1nnc(NC(=O)c2cccs2)s1
    -4 | -8
- CCc1nc2c(OCCOc3ccccc3)cccn2c1N(C)C(=O)c1ccncc1
    10 | 2
- O=C(O)C1(S(=O)(=O)c2ccc(Cl)c(Cl)c2)CCCC1
    2 | 0
- CN1CCN(c2cc(C(=O)Nc3cc(N4CCOC4=O)ccc3F)ccn2)CC1
    1 | -8
- CS(=O)(=O)N1CCOC(CNCC(=O)NCc2ccccc2F)C1 (stereo not drawn)
    0 | -2
- O=c1[nH]c2c(-c3nc4ccccc4s3)c(O)cn2c2sc3c(c12)CCCC3
    -5 | -9
- COCCNC(=O)c1nn(-c2cccc(C)c2)c(=O)n(Cc2ccccc2Cl)c1=O
    12 | 17
- CN(c1ccc(S(N)(=O)=O)cc1)S(=O)(=O)c1ccc(Cl)cc1F
    -1 | -3
- O=C(Nc1nccc2ccccc12)c1cccc(CN2CCCC(CO)C2)c1 (stereo not drawn)
    -1 | -2
- C=CCN1C(=O)C(=Cc2cccs2)SC1=S
    1 | -2
- CCC(=O)N1c2ccccc2-c2nnc(SC)nc2OC1c1ccc(C(=O)O)cc1 (stereo not drawn)
    -6 | -14
- CCCN(CCC)C(=O)c1c(NC(C)=O)sc2c1CCC(C)C2 (stereo not drawn)
    3 | 1
- CCOC(=O)c1c(C)nn(-c2ccc(C(=O)NC3CCC(C)CC3)cc2)c1C (stereo not drawn)
    -17 | -24
- Cc1cccc(N(C)c2cc(Nc3ccc(N(C)C)cc3)nc3ccnn23)c1
    -3 | -9
- CCn1ccc2cc(C(=O)N(C)C(C)CC(=O)NC)ccc21 (stereo not drawn)
    -8 | -11
